Vaccinia Venus = inhibitors of vaccinia virus (Venus reporter); Vaccinia virus Venus reporter expression, fluorescence; Potency, µM (highest dose often 36.5 µM), inactives show top-dose activity change, negative = inhibition, hits mostly inhibitors; 0.46% of 330,000 active; active means well fitted inhibition curve with a large enough effect; inconclusive means small, poorly fitted or top-dose-only effect; inactive means no such curve, though single readings can be large or run the other way; tested in A549 cells; further: nearly all actives have a fitted effect of over 30% in size; inactives centre near -10
VACV mCherry inh = inhibitors of vaccinia virus infection (mCherry reporter signal); 0.63% of 310,000 active; Vaccinia virus mCherry reporter infection, fluorescence; about a quarter of the inactives have no number; Potency, µM (top dose mostly 36.5 µM), for inactives: at the highest dose activity change, negative = inhibition, hits mostly inhibitors; AID 720579; active = well fitted inhibition curve with a large enough effect; inconclusive = small, poorly fitted or top-dose-only effect; inactive = no such curve, though single readings can be large or run the other way; tested in A549 cells; further: nearly all actives have a fitted effect of over 35% in size; inactives centre near -10
* = called active by the depositor; i = inactive; ? = inconclusive; . = no result given; [ ] = another dose, or the depositor's remark. On the % scale 0 is the no-effect control and ±100 the full control effect; potency means the concentration at half of the fitted maximal effect. Random draw from the library; about 0.88% have a hit in one of these screens.

The first two records (preview)
SMILES | Vaccinia Venus | VACV mCherry inh
O=C1CCN(S(=O)(=O)c2ccccc2)CCN1CCOCc1ccc(C(F)(F)F)cc1 | ? | ?
CN(C)S(=O)(=O)c1cccc(C(=O)Nc2n[nH]c(C(F)(F)F)n2)c1 | -2.8% | i

Results (from the top)
SMILES | Vaccinia Venus | VACV mCherry inh
O=C1CCN(S(=O)(=O)c2ccccc2)CCN1CCOCc1ccc(C(F)(F)F)cc1 | ? | ?
CN(C)S(=O)(=O)c1cccc(C(=O)Nc2n[nH]c(C(F)(F)F)n2)c1 | -2.8% | i
CC(C)(C)[C@@H]1C=C(C(=O)Nc2ccccc2)O[C@H](OCc2ccc(CO)cc2)C1 | -15.1% | i
N#CCSc1n[nH]c2nc3c(c(=O)n12)C1(CCCCC1)Cc1ccccc1-3 | 4.5% | -14.6%
O=C1C2C3C=CC([C@@H]2C(=O)N1C1CCCCC1)[C@H]1C(=O)N(C2CCCCC2)C(=O)C31 (some centres not stated) | -4.3% | -7.6%
c1ccc(N2CCCCC2)c(NC2=NCCC2)c1 | -12.3% | .
O=C1Nc2ccc(Cl)cc2C(=O)C1(F)c1ccccc1 (configuration not stated) | 0.0% | -2.5%
Cn1c(C(=O)N2CCCC(C(=O)N3CCN(C(=O)c4ccco4)CC3)C2)cc2sccc21 (configuration not stated) | -11.0% | -7.7%
Cc1ccc(NC(=O)COC(=O)CCc2nc3ccccc3c(=O)[nH]2)c(Br)c1 | -15.8% | -12.2%
COCc1nnc(NC(=O)c2ccc(S(=O)(=O)N3CCCc4ccccc43)cc2)o1 | ? | ?
O=C(CNC(=O)OCc1ccccc1)NCC(=O)N1CCCC1C(=O)OCc1ccccc1 (configuration not stated) | -2.9% | -12.7%
O=C(NCC1CCCO1)c1cccc(Oc2c(Cl)cccc2[N+](=O)[O-])c1 (configuration not stated) | -21.2% | -9.1%
CCN(CCN1CCCC1)C(=O)c1cc(COc2ccccc2SC)on1 | -18.8% | -21.1%
CN(C1CCCCC1)S(=O)(=O)c1ccc2c(c1)c(=O)c(C(=O)NCc1ccc(F)cc1)cn2C | 3.0% | -18.2%
COc1ccc(NC(=S)NCCC(c2ccccc2)c2ccccc2)c(OC)c1 | ? | ?
Cc1ccccc1OCC(=O)OCC(=O)NC12CC3CC(CC(C3)C1)C2 | -7.8% | -26.3%
O=C1COc2ccc(S(=O)(=O)NCCc3ccccc3)cc2N1 | -7.5% | -4.5%
CN(CC(=O)Nc1cccc(Cl)c1)S(=O)(=O)/C=C/c1ccccc1 | -29.2% | -25.8%
CCCS(=O)(=O)N1CCCC(C(=O)NCCN(CC)CC)C1 (configuration not stated) | -7.0% | .
CC(OC(=O)c1cccnc1)C(=O)NCc1ccc2c(c1)OCO2 (configuration not stated) | -12.3% | -7.3%
COc1ccc(C)cc1NCc1cc(=O)oc2cc(-c3ccccc3)c(O)cc12 | ? | -23.0%
Cc1nc(C(C)N(C)Cc2c(C(=O)N3CCCCC3)nc3c(C)cccn23)c(C)s1 (configuration not stated) | -7.8% | -0.1%
Cc1nn(Cc2ccc(Cl)cc2)c(C)c1NC(=O)c1noc2c1CCc1ccccc1-2 | ? | ?
O=C(Nc1cccc(Cl)c1)c1ccncc1 | -8.4% | i
CCOc1ccc(N2C(=O)c3cccnc3C2Nc2ccc(C)cc2)cc1 (configuration not stated) | -13.9% | -22.8%
CCC1CCc2c(sc(NC(C)=O)c2C#N)C1 (configuration not stated) | -22.9% | -26.1%
COc1ccccc1S(=O)(=O)Cc1ccc(C(=O)NCc2ccc(C)cc2)o1 | -5.4% | -5.0%
O=[N+]([O-])c1ccc(OCCO)nc1 | -15.1% | i
COc1cc(NC(=O)N2CCC(CN3CCOCC3)CC2)cc(OC)c1OC | -13.5% | -9.7%
Cc1noc(C)c1C(=O)N1CCC2(CC1)OCCO2 | -0.8% | -14.2%
COc1ccc(C)cc1N(CC(=O)Nc1cccnc1)S(=O)(=O)c1ccccc1 | -12.0% | -1.9%
CCCCC(=O)Nc1ccc2c(c1)C(=O)NC2=O | -8.6% | -3.4%
CN(CCCOc1ccccc1Br)Cc1ccccc1 | 2.5% | -8.9%
Cc1cc2c(nn1)CCC/C2=N\O | -11.8% | -22.4%
COc1cccc(NC(=O)C(=O)NCC(c2cccnc2)N2CCN(c3ccccc3)CC2)c1 (configuration not stated) | -14.3% | -15.2%
CCOC(=O)C(/C=C(\C#N)C(=O)OCC)=C(/N)N1CCN(c2ccccc2)CC1 | -5.3% | -13.1%
S=C(NCCCN1CCOCC1)NCCCN1CCOCC1 | -7.3% | -6.6%
COc1ccc(-c2noc(CSc3nnc(C)n3-c3ccc(OC)cc3)n2)cc1 | -5.8% | -3.9%
CCOc1ccc(NC(=O)Nc2ccc(Cc3ccncc3)cc2)cc1 | -5.2% | -10.2%
Cn1c(=O)c2c(ncn2CCC(=O)N/N=C/c2cccnc2)n(C)c1=O | 3.6% | -9.9%
CCCCCCCC[n+]1cccc2c3ccccc3ccc21 | ? | -27.3%
Cc1cn([C@H]2C[C@H](O)[C@@H](CCC(=O)NCC(c3ccccc3)c3ccccc3)O2)c(=O)[nH]c1=O | 9.4% | 14.2%
Cc1ccc2cccc(NC(=O)c3ccc(-c4ccc(Br)cc4)o3)c2n1 | -12.2% | i
CCC(c1nnnn1Cc1cccs1)N1CCN(C2CCCC2)CC1 (configuration not stated) | -1.5% | -2.8%
Cc1sc(NC(=O)c2ccc(=O)n(C)n2)nc1-c1ccccc1 | -11.8% | -15.6%
COc1cccc(-c2c(-c3cc(OC)cc(OC)c3)n(C)c3ccc(-c4cccc5[nH]ccc45)cc23)c1 | -18.2% | -16.4%
CN1CCN(c2ncnc3c2ncn3[C@H]2CN(Cc3ccccc3)C[C@@H](CO)O2)CC1 | -5.1% | 42.9%[activator]
CCCCNC(=S)NC(=O)c1ccc([N+](=O)[O-])cc1 | -10.7% | .
CCCc1nnc(NC(=O)CCC(=O)NCCc2ccc(Cl)cc2)s1 | 0.3% | -6.1%
CN(C)c1c(Cl)cc(/C=C2\C=Cc3ccccc32)cc1Cl | -0.9% | -11.0%
COc1ccc(/C=C2\SC(=S)N(CC(=O)NCCO)C2=O)cc1 | -12.9% | -14.5%
COc1ccc(NC(=O)c2cccc(N3C(=O)c4ccc(C(=O)Nc5ccc(OC)c(O)c5)cc4C3=O)c2)cc1O | -11.6% | -20.7%
CC1CC(C)CN(C(=S)NC2CCCCC2)C1 (configuration not stated) | -10.4% | -15.4%
CCn1c(=O)n(-c2ccc3c(c2)OCO3)c2nc(-c3cccc(OC)c3OC)nc(C(N)=O)c21 | -9.3% | -14.6%
Cc1ccc(CNC(=O)CCc2c(C)nn(-c3ccc(N4CCOCC4)nn3)c2C)cc1 | -5.5% | -11.4%
CCOc1ccc(N(C(=O)c2ccccc2F)S(=O)(=O)c2ccc3c(c2)n(C)c(=O)n3C)cc1 | 10.5% | -1.4%
CCOC(=O)[C@@H]1[C@H]2COc3ccccc3[C@@H]2N2C(=O)N(c3ccccc3)C(=O)[C@]12C | -17.0% | i
CCc1ccccc1NC(=O)Cn1ccn(-c2cc(C)cc(C)c2)c(=O)c1=O | -8.6% | -5.6%
CC1=Nc2cc(C(=O)NC3CCCC3)ccc2Sc2ccc(Br)cc21 | ? | ?
COC(=O)c1cc2ccccc2c(-c2c(OC)c(C(=O)OC)cc3ccccc23)c1OC | -17.6% | ?
Further results
SMILES | Vaccinia Venus | VACV mCherry inh
COCCCNc1nc(-c2ccc(Cl)cc2)nc2ccccc12 | -21.4% | -17.0%
COC(=O)c1c(C)nc(C)c(C(=O)OC)c1-c1ccc(OC)c(OC)c1 | -5.7% | -4.1%
Nc1c(N2CCCCC2)c2ccccc2oc1=O | -2.3% | -13.6%
CC(C)NC(=O)Nc1ccc2c(c1)C(=O)N([C@H](C)CO)C[C@H](C)[C@@H](CN(C)C(=O)NC(C)C)O2 | 0.8% | -8.2%
Cc1n[nH]c(=S)n1/N=C/c1ccc(OCc2ccc(Cl)cc2Cl)cc1 | -9.4% | -14.9%
CNC(=S)NCCC(c1ccccc1)c1ccccc1 | 1.7% | i
O=C(N/N=C/c1c(O)n(C2CC2)c(=S)[nH]c1=O)c1ccccc1Cl | -18.0% | i
Cc1c(-c2nsc(NC(=O)c3cccs3)n2)nnn1-c1ccc(Br)cc1 | ? | -32.1%
COC(=O)C1=C(C)N(C)C(C)=C(C(=O)OC)C1c1cccc(Br)c1 | ? | .
CNC(=S)Nc1ccc(C)cc1 | -6.5% | -5.7%
CCc1nc2ccc(C(=O)N(C)Cc3ccco3)cn2c1N(C)Cc1ccc(OC)cc1 | -5.3% | 6.5%
Cc1c(N(C(=O)CNC(=O)c2ccccc2)C2(C(=O)NC3CCCCC3)CCCCC2)c(=O)n(-c2ccccc2)n1C | 2.0% | -2.3%
CCOC(=O)C1CCCN(Cc2nc(N)nc(Nc3ccccc3)n2)C1 (configuration not stated) | -15.3% | -21.5%
COC(=O)c1ccccc1NC(=O)Cn1cc2c(n1)CCC(C)C2 (configuration not stated) | -5.0% | -1.2%
COc1ccc(-c2csc(Nc3cccc(C)n3)n2)cc1C | -19.1% | -22.6%
CC(Nc1nc(-c2ccccc2F)nc2ccccc12)c1ccccc1 (configuration not stated) | -21.6% | i
COc1cccc(C2CC(c3ccc(Cl)cc3Cl)Nc3nc(N)nn32)c1 (configuration not stated) | -19.1% | -17.5%
CCOC(=O)c1c(C)oc2c(CC(=O)c3ccccc3)c(Cl)c(O)c(O)c12 | -13.5% | ?
COc1ccc(-c2ccc(C(=O)Nc3ccc(Cl)cc3)c3occc23)c(C)c1 | -2.8% | 1.5%
CCCCNC(=O)N1CCN(S(C)(=O)=O)CC1 | 1.1% | i
COc1ccc(-c2cc(C(=O)O)c3ccccc3n2)c(OC)c1 | -10.5% | .
Cc1cc(NC(=O)Nc2ccccc2F)ccc1Br | ? | -7.8%
CC1(C(=O)NS(=O)(=O)Cc2ccccc2)CCN1C(=O)c1ccc(C2CCCCC2)cc1 (configuration not stated) | -1.4% | i
COc1ccc(NS(=O)(=O)c2cc([N+](=O)[O-])ccc2N/N=C\c2c(C)[nH]c3ccccc23)cc1 | -5.9% | i

Full records, looked up by structure.
Record of Cc1c(N(C(=O)CNC(=O)c2ccccc2)C2(C(=O)NC3CCCCC3)CCCCC2)c(=O)n(-c2ccccc2)n1C : Vaccinia Venus: 2.0%; VACV mCherry inh: -2.3%
Record of O=C1C2C3C=CC([C@@H]2C(=O)N1C1CCCCC1)[C@H]1C(=O)N(C2CCCCC2)C(=O)C31 (some centres not stated) : Vaccinia Venus: -4.3%; VACV mCherry inh: -7.6%
Record of CCC(c1nnnn1Cc1cccs1)N1CCN(C2CCCC2)CC1 (configuration not stated) : Vaccinia Venus: -1.5%; VACV mCherry inh: -2.8%

Continuation.
SMILES | Vaccinia Venus | VACV mCherry inh
C=CCn1c(SC2CCOC2=O)nc2sc(C)c(C)c2c1=O (configuration not stated) | -10.3% | i
CSc1cccc(NC(=O)Cn2c(=O)n(Cc3ccccc3)c(=O)c3sc4ccccc4c32)c1 | -7.8% | -14.8%
Nc1nc2n(n1)C(c1cccc(Cl)c1)CC(c1ccc(F)cc1)N2 (configuration not stated) | 4.7% | -4.7%
COc1ccc(C2(C)NC(=O)N(CC(=O)NCC(=O)Nc3ccc(F)c(F)c3F)C2=O)cc1OC (configuration not stated) | -1.3% | -11.5%
COC(=O)c1ccc2c(c1)N(Cc1ccc(F)cc1)C(=O)c1ccccc1S2 | 4.7% | 1.7%
CC1=C(C(=O)N(C(C)C)C(C)C)CC(CC(=O)NCC2CCCCC2)C(=O)N1Cc1ccc(F)cc1 (configuration not stated) | -8.4% | i
CCc1cc(C(=O)OC)c(NC(=O)CC2SC(N)=NC2=O)s1 (configuration not stated) | -13.6% | i
O=C(COC(=O)CN1C(=O)c2ccccc2C1=O)Nc1ccc(S(=O)(=O)N2CCCC2)cc1 | -5.9% | i
CS(=O)(=O)c1ccc(C(=O)N2CCc3ccccc3C2)cc1 | -9.3% | -22.4%
COc1ccc(NC(=O)Cc2ccsc2)c(OC)c1 | -0.4% | -12.3%
Cc1cccc2c1CC(C)(C)N=C2C1=C(O)CCCC1=O | -29.6% | .
O=C(c1cc([N+](=O)[O-])ccc1N1CCOCC1)N1CCN(S(=O)(=O)c2cc(Cl)ccc2Cl)CC1 | -14.2% | i
COc1ccc(CN2C(=O)C(CC(=O)NCCCN(C)C)CC(C(=O)N3CCOCC3)=C2C)cc1 (configuration not stated) | 15.3% | 11.6%
O=C(NCCc1c[nH]c2ccccc12)C(=O)Nc1cc2c3c(c1)CC(=O)N3CCC2 | -18.6% | -8.7%
CCCOc1ccc(CNC(=O)c2ccc3c(c2)N(CC)CCS3)cc1 | -26.6% | -18.1%
Cc1c(OCC(=O)N2CCC(C(=O)O)CC2)ccc2c1oc(=O)c1ccccc12 | -8.5% | -4.0%
CC(NC(=O)c1ccc2c(c1)OCO2)C(c1cccs1)N1CCOCC1 (configuration not stated) | -8.2% | i
O=C1CC(c2ccccc2)CC(O)=C1C=NCc1ccco1 (configuration not stated) | -19.4% | -11.4%
CC(=O)Nc1cccc(-c2csc(N)n2)c1 | -17.8% | -6.3%
COc1cc(C2c3c(-c4ccccc4O)n[nH]c3C(=O)N2CCO)ccc1OCc1ccccc1 (configuration not stated) | -10.2% | -14.1%
O=c1c2[nH]c3ccc(F)cc3c2ncn1CCN1CCOCC1 | -5.9% | -6.6%
COc1ccc(OC)c(/C=C2\Oc3cc(OCC(=O)N4CCC(C(=O)O)CC4)ccc3C2=O)c1 | 2.4% | 2.4%
Cc1cc(C)c(NC(=O)CN2C(=O)c3cccnc3Oc3ccc(C)cc32)c(C)c1 | -8.1% | -15.7%
CCOc1cc(/C=C/C(=O)OCC(=O)NCC2CCCO2)cc(Cl)c1OC (configuration not stated) | -17.7% | ?
